# Screening results from PubChem.
# N370S GC – qHTS Assay for Inhibitors and Activators of N370S glucocerebrosidase as a Potential Chaperone Treatment of Gaucher Disease. Lysosomal acid glucosylceramidase (Homo sapiens), P04062. N370S GC spleen homogenate, 4MU-glucoside fluorescence. Potency, µM (highest dose often 59.4 µM), for inactives: at the top dose activity change, negative = inhibition, most hits filed as inhibitors. 0.092% of 330,000 active. AID 2101, 2009;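 further: 0% = full enzyme activity and -100% = no enzyme basal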
# KAT2A inh – qHTS Assay for Inhibitors of GCN5L2; Histone acetyltransferase KAT2A (Homo sapiens), Q92830; Potency, µM (highest dose often 58.9 µM), for inactives: at the highest dose activity change, negative = inhibition, most hits filed as inhibitors; GCN5L2 HAT assay, ThioGlo1 CoA-SH fluorescence; 0.21% of 390,000 active; AID 504327, 2011
# Target sequence (Q92830 whole entry, looked up): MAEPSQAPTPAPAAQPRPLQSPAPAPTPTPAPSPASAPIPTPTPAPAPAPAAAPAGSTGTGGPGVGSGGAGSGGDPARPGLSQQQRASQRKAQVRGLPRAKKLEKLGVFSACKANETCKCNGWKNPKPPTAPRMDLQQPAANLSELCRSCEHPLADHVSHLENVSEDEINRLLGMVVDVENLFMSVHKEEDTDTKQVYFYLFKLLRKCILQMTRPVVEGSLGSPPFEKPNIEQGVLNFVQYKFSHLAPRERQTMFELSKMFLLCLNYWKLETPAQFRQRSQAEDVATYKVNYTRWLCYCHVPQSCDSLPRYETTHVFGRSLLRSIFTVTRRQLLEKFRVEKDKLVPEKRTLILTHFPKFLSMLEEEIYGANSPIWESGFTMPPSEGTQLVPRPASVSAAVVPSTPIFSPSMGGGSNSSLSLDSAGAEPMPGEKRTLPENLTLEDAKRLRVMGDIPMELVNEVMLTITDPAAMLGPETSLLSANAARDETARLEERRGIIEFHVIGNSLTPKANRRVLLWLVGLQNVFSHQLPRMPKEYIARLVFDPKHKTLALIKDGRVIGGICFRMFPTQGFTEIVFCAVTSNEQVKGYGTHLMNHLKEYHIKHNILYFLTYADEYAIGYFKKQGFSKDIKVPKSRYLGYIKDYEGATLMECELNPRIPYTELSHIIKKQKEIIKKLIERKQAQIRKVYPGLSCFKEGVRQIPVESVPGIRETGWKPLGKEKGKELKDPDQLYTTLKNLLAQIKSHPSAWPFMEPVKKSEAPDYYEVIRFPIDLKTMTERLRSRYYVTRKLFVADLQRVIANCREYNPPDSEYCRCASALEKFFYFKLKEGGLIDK
#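 Preincubate 20nM GCN5L2 with compound 15 min, RT → add 50uM ThioGlo1 + 75uM H3(1-25) + 70uM acetyl-CoA → read fluorescence 0 and 20 min. Primary qHTS; fluorescent artifacts likely.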
# An asterisk follows results filed as active; ? = inconclusive; nt = no result given; & = joins results of further samples. The call rests on the fitted dose curve; in most records, active means well fitted curve in the direction sought with a large enough effect; inconclusive means small, poorly fitted or top-dose-only effect, or another doubt; inactive means no such curve, though single readings can be large; an effect the other way counts as inactive or inconclusive. Unless noted, on the % scale 0 is the no-effect control and ±100 the full control effect; potency means the concentration at half of the fitted maximal effect. These rows are one share of the data; most or all hits stand in other tables.
SMILES,N370S GC,KAT2A inh
Cc1ccc2cc(CCNC(=O)c3ccc(S(=O)(=O)N4CCOCC4)cc3)c(=O)[nH]c2c1C,-8%,-2%
CC(C)OC(=O)CSc1ncnc2c1cnn2-c1ccccc1,-15%,-6%
COc1ccc(-c2[nH]ncc2CN(C)Cc2cccnc2)c(OC)c1,-16%,-16%
CCS(=O)(=O)N1CCN(c2ccccc2)CC1,5%,0%
CCNc1nc(NC(C)C)nc(N(C#N)C(C)C(=O)N(C)C)n1 (stereo not drawn),10%,2%
CCCCN(CC)CCCNC(=O)CN1C(=O)CSc2ccc(S(=O)(=O)N3CCOCC3)cc21,-19%,-11%&0%
COc1ccc(C/C(C)=N/NS(=O)(=O)c2ccc(Br)cc2)cc1,12%,-6%
CN1CCN(CC(=O)Nc2ccc(OC(F)(F)F)cc2)CC1,-5%,-19%
Cc1nnc(NC(=O)c2ccccc2F)s1,-30%,-3%
Cc1c(NC(=O)C(C)OC(=O)c2ccc(NC(=O)CC#N)cc2)c(=O)n(-c2ccccc2)n1C (stereo not drawn),-18%,0%
CC(=O)Nc1nnc(CCS(=O)(=O)c2ccc(C)c(C)c2)s1,-5%,?
O=c1cc(CSc2nnc(Nc3ccccc3)s2)nc2sccn12,8%,3%
O=C(/C=C/c1ccco1)NCCCN1CCOCC1,-15%,-2%
C=C(C)CN(CC)C(=O)CSc1nc(O)cc(=O)n1C1CCCC1,-14%,-17%
FC(F)(F)c1nc(SCc2ccc(Cl)cc2Cl)n[nH]1,23%,-1%
O=C(O)CCn1cc(/C=N/O)c(-c2cccc([N+](=O)[O-])c2)n1,-5%,-6%
COc1ccc(NC(=S)NCCc2ccccc2OC)c(OC)c1,18%,-11%
COc1ccc(C(CNC(=O)c2cccc([N+](=O)[O-])c2)N2CCOCC2)cc1 (stereo not drawn),nt,-4%
O=C(Nn1cnnc1)c1ccc(Cl)c([N+](=O)[O-])c1,1%,-8%
Cc1cc(C(=O)CN2C(=O)c3ccccc3S2(=O)=O)c(C)n1C(C)C,nt,4%
COc1ccc(NC(=O)CN2CCN(S(=O)(=O)c3ccc(C(C)C)cc3)CC2)cc1OC,-2%,-5%
Cc1cccc(-c2ncc(CN3CCN(CCC(C)C)C(CCO)C3)cn2)c1 (stereo not drawn),5%,-3%
Cc1ccc(NC(=O)COc2cccnc2[N+](=O)[O-])cc1S(=O)(=O)N1CCOCC1,-9%,-3%
Cc1[nH]c2ccc(C(=O)NCc3ccccn3)cc2c1C,3%,-7%
Cc1ccc(NC(=O)Nc2cccc(C)n2)cc1,?,-15%&0%
Cc1onc(-c2ccccc2)c1C(=O)N/N=C/c1ccc(O)c([N+](=O)[O-])c1,-6%,?
COc1ccc(N2CCN(C(=O)CCC(=O)N3CCOc4ccc(Cl)cc43)CC2)cc1,-25%,-4%
O=S(=O)(c1ccc(Cl)cc1)N1CCCN(c2ccc(C(F)(F)F)cn2)CC1,10%,-26%
COc1cc(SC)ccc1C(=O)NCCCOC(C)C,-2%,0%
O=C(NCCc1ccccc1)C1CCCN1S(=O)(=O)c1ccc(Cl)cc1 (stereo not drawn),1%,5%
CCCCOCCCNC(=O)c1ccccc1OCC,4%,-4%
COc1ccc(OC)c2[nH]c(C(=O)N/N=C/c3ccccc3O)cc12,-17%,-4%
O=S(=O)(NC(=S)Nc1ccccc1)c1ccc(F)cc1,-4%,-8%
CC1CCc2c(sc(NC(=O)COC(=O)c3ccc(NC(=O)CC#N)cc3)c2C#N)C1 (stereo not drawn),3%,-3%
CC(C)C[C@H](NC(=O)Nc1cccc(Cl)c1)C(=O)O,3%,0%
Cc1nc(-c2ccc(NC(=O)c3ccccc3Br)cc2)cs1,-6%,-4%
CCOC(=O)C1(CCCc2ccccc2)CCN(C(=O)COC)CC1,-8%,1%
COc1ccc(CCNC(=O)CSc2nc(O)c(C(C)C)c(=O)[nH]2)cc1OC,0%,1%
C=CCn1c(SCC(=O)N(C)C)nc2cc(C(=O)O)ccc2c1=O,1%,-7%
COCCCn1c(CCC(=O)O)ccc1-c1cccs1,11%,-7%
COc1ccc(S(=O)(=O)N(C)CC(=O)N2CCC(C)CC2)cc1Cl,4%,-3%
CCCn1c(=O)c(-c2ccccc2)c(O)c2ccccc21,-18%,-7%
Cc1c(C(=O)N(C)C)sc2c1c(=O)n(-c1ccccc1C(F)(F)F)c(=O)n2Cc1ccccc1C#N,nt,0%
Cc1ccc(C2/C(=C(/O)c3ccccc3)C(=O)C(=O)N2CCN2CCOCC2)o1 (stereo not drawn),1%,?
O=C1CN(C(=O)CSc2nc3ccccc3c(=O)n2CC2CCCO2)c2ccccc2N1 (stereo not drawn),-4%,-2%
CCn1cc(C(=O)NCCOC)c(=O)c2ccc(C)nc21,6%,1%
Cc1ccc(NS(=O)(=O)c2ccc3c(c2)NC(=O)CO3)cc1C,-11%,-14%
Cc1cc(C)n2nc(C(=O)N3CCCC(Nc4ccc(F)c(F)c4)C3)cc2n1 (stereo not drawn),0%,-4%
Cc1ccc(CCNC(=O)C2CCC(=O)N2Cc2ccc(F)cc2)cc1 (stereo not drawn),-20%,-12%
NS(=O)(=O)c1ccc(CCNC(=O)COC(=O)C2CCCN2C(=O)c2cccs2)cc1 (stereo not drawn),-1%,-2%
O=C(OCCCOC(=O)c1ccc(O)cc1)c1ccc(O)cc1,-20%,-3%
Cc1cc(C)c(C(=O)N2CCCC(Nc3ccc(C)c(C)c3)C2)o1 (stereo not drawn),-3%,-3%
CCCOc1ccc(-c2cc(C(=O)NCC3CCCO3)c3ccccc3n2)cc1 (stereo not drawn),15%,1%
CN(c1ccc(F)cc1)S(=O)(=O)c1ccc(Cl)c(C(=O)Nc2ccncc2)c1,-13%,-7%
NNC(=O)CSc1cccc2cccnc12,?,-7%
COc1ccccc1CNC(=O)C1CCCC1,-6%,-4%
COc1ccc(-c2nc(SC)n(C(=O)c3ccco3)n2)cc1,10%,-1%
CC(OC(=O)CNS(=O)(=O)c1ccc(C#N)cc1)C(=O)Nc1cccc(C#N)c1 (stereo not drawn),-2%,-1%
COc1cccc(C(=O)OCC(=O)c2ccc(S(=O)(=O)N3CCCCC3)cc2)c1OC,-12%,-9%
CCC(=O)NC(=S)Nc1cccc(C(C)=O)c1,16%,20%

# Another view of 23 compounds above:
mol	N370S GC	KAT2A inh
CC1CCc2c(sc(NC(=O)COC(=O)c3ccc(NC(=O)CC#N)cc3)c2C#N)C1 (stereo not drawn)	3%	-3%
CC(C)C[C@H](NC(=O)Nc1cccc(Cl)c1)C(=O)O	3%	0%
Cc1nc(-c2ccc(NC(=O)c3ccccc3Br)cc2)cs1	-6%	-4%
CCOC(=O)C1(CCCc2ccccc2)CCN(C(=O)COC)CC1	-8%	1%
COc1ccc(CCNC(=O)CSc2nc(O)c(C(C)C)c(=O)[nH]2)cc1OC	0%	1%
C=CCn1c(SCC(=O)N(C)C)nc2cc(C(=O)O)ccc2c1=O	1%	-7%
COCCCn1c(CCC(=O)O)ccc1-c1cccs1	11%	-7%
COc1ccc(S(=O)(=O)N(C)CC(=O)N2CCC(C)CC2)cc1Cl	4%	-3%
CCCn1c(=O)c(-c2ccccc2)c(O)c2ccccc21	-18%	-7%
Cc1c(C(=O)N(C)C)sc2c1c(=O)n(-c1ccccc1C(F)(F)F)c(=O)n2Cc1ccccc1C#N	nt	0%
Cc1ccc(C2/C(=C(/O)c3ccccc3)C(=O)C(=O)N2CCN2CCOCC2)o1 (stereo not drawn)	1%	?
O=C1CN(C(=O)CSc2nc3ccccc3c(=O)n2CC2CCCO2)c2ccccc2N1 (stereo not drawn)	-4%	-2%
CCn1cc(C(=O)NCCOC)c(=O)c2ccc(C)nc21	6%	1%
Cc1ccc(NS(=O)(=O)c2ccc3c(c2)NC(=O)CO3)cc1C	-11%	-14%
Cc1cc(C)n2nc(C(=O)N3CCCC(Nc4ccc(F)c(F)c4)C3)cc2n1 (stereo not drawn)	0%	-4%
Cc1ccc(CCNC(=O)C2CCC(=O)N2Cc2ccc(F)cc2)cc1 (stereo not drawn)	-20%	-12%
NS(=O)(=O)c1ccc(CCNC(=O)COC(=O)C2CCCN2C(=O)c2cccs2)cc1 (stereo not drawn)	-1%	-2%
O=C(OCCCOC(=O)c1ccc(O)cc1)c1ccc(O)cc1	-20%	-3%
Cc1cc(C)c(C(=O)N2CCCC(Nc3ccc(C)c(C)c3)C2)o1 (stereo not drawn)	-3%	-3%
CCCOc1ccc(-c2cc(C(=O)NCC3CCCO3)c3ccccc3n2)cc1 (stereo not drawn)	15%	1%
CN(c1ccc(F)cc1)S(=O)(=O)c1ccc(Cl)c(C(=O)Nc2ccncc2)c1	-13%	-7%
NNC(=O)CSc1cccc2cccnc12	?	-7%
COc1ccccc1CNC(=O)C1CCCC1	-6%	-4%

# Going on with the list.
SMILES,N370S GC,KAT2A inh
CCOC(=O)C1(Cc2cccc(OC)c2)CCCN(C(=O)c2cc(C)oc2C)C1 (stereo not drawn),-6%,-3%
O=C(Cn1c(NCCCO)nc2ccccc21)c1ccc([N+](=O)[O-])cc1,-9%,-14%
CS(=O)(=O)c1ccc(Cl)c(S(=O)(=O)NCc2ccccc2)c1,2%,-5%
COc1cc(C2N(c3ccc(Cl)c(Cl)c3)C(=O)C3CCCN32)cc(OC)c1OC (stereo not drawn),1%,0%
Cc1cc(C(=O)NN)c(C)o1,0%,-4%
CCOC(=O)C1=C(C)NC(C)=C(C(=O)OCC)C1C(=O)OCC(=O)N(C)C1CCS(=O)(=O)C1 (stereo not drawn),3%,-4%
O=C(O)C1CC1c1ccc(Br)cc1 (stereo not drawn),0%,-14%
CCc1nnc(NC(=O)C(C)N2C(=O)C3C4C=CC(C4)C3C2=O)s1 (stereo not drawn),3%,-4%
O=C(O)CONC(=O)c1cc(OCC(F)(F)F)ccc1OCC(F)(F)F,-7%,-8%
COc1cccc(C(=O)N2CCC(n3nccc3NC(=O)C(OC)c3ccccc3)CC2)c1 (stereo not drawn),1%,-7%
CCOC(=O)c1sc2ccccc2c1S(=O)(=O)N1CCN(c2cccc(OC)c2)CC1,nt,-21%
CNCC(C)COc1ccccc1OCc1ccccc1 (stereo not drawn),0%,-2%
CC(C)C(=O)Nc1ccc2c(c1)nc(CCN1CCN(C)CC1)n2C,2%,1%
Cc1cc(Nc2cccc(Cl)c2)c2ccccc2n1,-11%,-4%
COCCN(C(=O)c1csnn1)C(C(=O)NC1CCCC1)c1ccc(C)cc1 (stereo not drawn),-4%,1%
COc1cc(C)ccc1OCCOc1ccccc1Cl,24%,-13%
O=C(Cn1c(O)c(N=NC(=O)c2ccncc2)c2ccccc21)Nc1ccccc1,0%,2%
COc1cccc(N2CCN(C(=O)CNC(=O)c3sc4ccccc4c3Cl)CC2)c1,1%,-10%
Cc1cccc(C)c1NC(=S)NC(=O)c1ccc(Br)o1,15%,-8%
O=C(COc1ccc2ccccc2c1)NNC(=O)[C@@H]1CCCC[C@@H]1C(=O)O,1%,-2%
O=C1C(=O)N(c2ccccn2)C(c2ccc(Br)cc2)/C1=C(/O)c1ccc(Br)cc1 (stereo not drawn),-5%,-8%
Clc1ccc(-c2cccs2)nn1,5%,-5%
C=CCNC(=O)c1ccccc1SCc1c(C)noc1C,-11%,-18%
O=C1CC(c2cccc(Cl)c2)CC(O)=C1C=Nc1ccccc1 (stereo not drawn),-7%,-4%
COc1ccc(CCNC(=O)c2cc(CC(C)C)on2)cc1OC,4%,-1%
CN1CCN(C(=O)C2CCN(S(=O)(=O)c3ccc4c(c3)oc(=O)n4C)CC2)CC1,5%,-2%
O=C(O)C1CC(=O)N(CCc2ccc(F)cc2)C1 (stereo not drawn),0%,-3%
CCOC(=O)C1(CCCc2ccccc2)CCN(Cc2cn(CC)nc2C)CC1,-20%,-7%
CCOc1ccc(N2CC(NC(=O)Cc3cccs3)CC2=O)cc1 (stereo not drawn),nt,-10%
Cc1cccc(C(=O)Nc2cccc(C(=O)Nc3cc(C)ccn3)c2)c1,-7%,3%
O=C(COc1ccc2c3c(c(=O)oc2c1)CCCC3)NCCN1CCOCC1,-1%,-4%
O=C(O)CC1S/C(=N/N=C/c2ccc(-c3ccccc3[N+](=O)[O-])o2)NC1=O (stereo not drawn),12%,-17%
COc1ccc(CN2CCN(C(=O)c3cc(-c4cccnc4)nc4ccc(Cl)cc34)CC2)c(OC)c1OC,-13%,-4%
CN(Cc1ccccc1)C(=O)c1cccc(NC(=O)c2ccco2)c1,0%,-4%
COC(=O)c1ccc(COn2nnc3ccccc32)cc1,6%,-12%
CSc1ccc(/C=C/c2cc(=O)c3ccccc3[nH]2)cc1,21%,-12%
C=CCN(Cc1cccc(OC)c1OC)C(=O)Oc1ccccc1,nt,-2%
O=C(CN(CCc1ccccc1)S(=O)(=O)c1ccc(Br)cc1)N/N=C/c1ccc2c(c1)OCO2,7%,-1%
CC1CCN(c2oc(-c3ccco3)nc2S(=O)(=O)c2ccccc2)CC1,2%,-29%
CN(C)c1ccc(/C=N/N=C(N)N)cc1[N+](=O)[O-],-6%,4%
COc1cccc(/C=N/Nc2cc(-n3nc(C)cc3-c3ccccc3)ncn2)c1O,4%,-4%
CCN(c1cccc2ccccc12)S(=O)(=O)c1ccc(Cl)nc1,5%,-11%
COc1ccc(-c2nn3c(=O)cc(CN4CCN(C(=O)/C=C/c5ccccc5)CC4)nc3s2)cc1,nt,0%

# Complete entries from above:
# `C=CCNC(=O)c1ccccc1SCc1c(C)noc1C` in the list: N370S GC: -11%; KAT2A inh: -18%
# `O=C(COc1ccc2c3c(c(=O)oc2c1)CCCC3)NCCN1CCOCC1` in the list: N370S GC: -1%; KAT2A inh: -4%
